High-throughput results deposited in PubChem BioAssay by Center for Chemical Genomics, University of Michigan.
TAR Tat displ = HIV-1 TAR-Tat binding disruption. z-score (no concentration beside the values). AID 1259389. HIV-1 TAR RNA, Tat peptide displacement FRET; stronger effect = higher value. 100,000 compounds, 0.6% hits;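 further: score is relative to mean and SD of negative controls; some compounds called inactive have numbers as strong as hits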
CDC25B CDK2 inh = human CDC25B-CDK2/CyclinA binding inhibition; P30305+P24941; AID 1259370; HTRF CDC25B-CDK2/CyclinA binding, anti-His/anti-Flag; stronger effect = higher value; 94,000 compounds, 0.72% hits; z-score (concentration not given with the values);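 further: score is relative to mean and SD of negative controls; strong numbers were not always called active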
Starred values were filed as active, the others as inactive; nt = no result given.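 How the source made its calls: active means z-score from 3 up in half or more of its runs; inactive means the rest.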

The first 7 records as a preview:
cpd	mol	TAR Tat displ	CDC25B CDK2 inh
1	CCOC1C(C2COC3(CCCCC3)O2)OC2OC3(CCCCC3)OC21 (configuration not stated)	nt	-0.95
2	COc1ccc(/C=C/c2nc3ccccc3n2C)cc1	1.02	0.13
3	CCCCN(CCCC)C(=O)CCn1c(=O)oc2ccccc21	nt	-2.2
4	CCC(C(=O)O)N1C(=O)C2CCCCC2C1=O (configuration not stated)	-0.28	-1.96
5	Cc1nc(-c2nnc(NC(=O)Nc3ccc(C)c(C)c3)o2)c(C)s1	-0.69	-2.42
6	O=C(NCC1CCCO1)c1nnc(CS(=O)(=O)c2ccccc2)o1 (configuration not stated)	1.87	-0.53
7	CCC(C(=O)NCCOC)N1C(=O)CCn2nc(C)cc21 (configuration not stated)	1.63	nt

Main list, repeating the preview:
cpd	mol	TAR Tat displ	CDC25B CDK2 inh
1	CCOC1C(C2COC3(CCCCC3)O2)OC2OC3(CCCCC3)OC21 (configuration not stated)	nt	-0.95
2	COc1ccc(/C=C/c2nc3ccccc3n2C)cc1	1.02	0.13
3	CCCCN(CCCC)C(=O)CCn1c(=O)oc2ccccc21	nt	-2.2
4	CCC(C(=O)O)N1C(=O)C2CCCCC2C1=O (configuration not stated)	-0.28	-1.96
5	Cc1nc(-c2nnc(NC(=O)Nc3ccc(C)c(C)c3)o2)c(C)s1	-0.69	-2.42
6	O=C(NCC1CCCO1)c1nnc(CS(=O)(=O)c2ccccc2)o1 (configuration not stated)	1.87	-0.53
7	CCC(C(=O)NCCOC)N1C(=O)CCn2nc(C)cc21 (configuration not stated)	1.63	nt
8	CC(C)N(Cc1ccccc1)C(=O)Cn1ncc2c(=O)oc3ccccc3c21	-0.3	-2.45
9	Cc1cccn2c(=O)cc(COc3ccc(NS(=O)(=O)c4ccccc4)cc3)nc12	-1.29	nt
10	NC(=O)CCCn1nnc2cc(S(=O)(=O)N3CCCCC3)ccc21	0.75	nt
11	O=C1NC(c2ccccc2Cl)c2c1n[nH]c2-c1ccco1 (configuration not stated)	-4.79	0.06
12	CC1Cc2ccccc2N1C(=O)CCS(=O)(=O)c1ccc2c(c1)n(C)c(=O)c(=O)n2C (configuration not stated)	0.73	-0.59
13	COCCOC(=O)C1=C(C)Nc2nc3ccccc3n2C1c1ccc(C)cc1 (configuration not stated)	-0.6	-1.78
14	NC1=NC(c2ccccc2O)n2c(nc3ccccc32)N1 (configuration not stated)	-1.37	-0.98
15	CCC(CO)NS(=O)(=O)c1cc(-c2nnc(OC)c3ccccc23)ccc1C (configuration not stated)	-0.19	-1.23
16	O=C(NCCN1CCCCC1)C1CCCN(c2nn3c(=O)c4c(nc3s2)CCCC4)C1 (configuration not stated)	1.14	nt
17	N#C/C(=C\c1ccc2c(c1)OCO2)c1nc2ccccc2[nH]1	nt	-2.43
18	CC1CCN(c2cc(NCCO)c3c4c(onc24)-c2ccccc2C3=O)CC1	1.94	-2.01
19	Cc1ccccc1/C=C/C1=NCCN1	nt	-0.12
20	CCOCc1nc(N2CCOCC2)sc1C(=O)NCc1ccco1	1.59	nt
21	O=C(Nc1ccc(F)c(Cl)c1)C1CC(=O)n2c(nc3ccccc32)N1 (configuration not stated)	-0.16	1.67
22	O=C(NCc1ccc2c(c1)OCO2)C1CCN(C(=O)c2sccc2-n2cccc2)CC1	nt	-1.25
23	CC(C)Cn1c(=O)c2ccccc2n2c(CCC(=O)N3CCN(C4CCCCC4)CC3)nnc12	0.78	-0.29
24	Cc1nn(-c2ccc(N3CCOCC3)nn2)c(C)c1CCC(=O)NCCCc1ccco1	1.21	nt
25	COc1ccc(-c2cc(C(F)(F)F)n3nc(C(N)=O)c(Br)c3n2)cc1	-0.35	0.07
26	CCOc1ccc(-c2cc(-c3nc(-c4ccc5c(c4)OCO5)no3)[nH]n2)cc1	0.16	nt
27	CCOC(=O)N1CCN(c2cc(C)nc3nc(-c4ccc(C(C)(C)C)cc4)nn23)CC1	-1.22	0.78
28	COc1ccc(CCNS(=O)(=O)c2ccc3c(c2)S(=O)(=O)N=CN3)cc1OC	0.71	nt
29	CCS(=O)(=O)c1ncc(Cl)c(C(=O)N(Cc2ccccc2Cl)C2CCS(=O)(=O)C2)n1 (configuration not stated)	2.41	-2.05
30	CN(C(=O)Cc1noc2ccccc12)c1ccccc1	1.58	0.2
31	c1cncc(-c2nc3c4ccccc4nc(NCCN(Cc4ccco4)C4CCCC4)n3n2)c1	nt	0.05
32	NC(=O)Cn1c(=O)n(Cc2ccc3c(c2)OCO3)c(=O)c2cccnc21	0.38	-1.92
33	CCC(C(=O)NCCCN1CCC(N2CCCCC2)CC1)N1C(=O)CCn2nc(C)cc21 (configuration not stated)	0.82	nt
34	Cc1cc(NC(=O)NCc2c(C)nn(C)c2C)ccc1Br	0.89	nt
35	COc1nccnc1NS(=O)(=O)c1ccc(N)cc1	0.52	-1.63
36	Cc1ccc(CCNS(=O)(=O)c2ccc3c(c2)NC(=O)C(C)S3)cc1 (configuration not stated)	2.29	nt
37	COc1ccc(Oc2c(C(F)(F)F)oc3c(CN4CCCCC4C)c(O)ccc3c2=O)cc1 (configuration not stated)	-1.07	-1.5
38	Cc1c(N2CCC(C(=O)O)CC2)c(=O)n(CC(C)C)c(=O)n1-c1ccccc1	0.48	0.94
39	CCC(C)NC(=O)c1ccc2c(c1)NC(=O)C(CC(C)C)N2 (configuration not stated)	0.31	0.37
40	CCOc1ccccc1NC(=O)Nc1cccc(C(=O)O)c1	nt	0.66
41	O=C(O)CN1C(=O)COc2ccccc21	1.22	nt
42	O=c1cc2nc(-c3cccc(F)c3)nc(SCCCOc3ccccc3)n2[nH]1	2.16	nt
43	O=C(Nc1ccc(F)c(Cl)c1)N1CCN(c2nc3cc(F)ccc3n3cccc23)CC1	1.24	nt
44	S=C(NCc1csc2ccccc12)NCC1CC1	nt	-2.12
45	CSc1nn(Cc2ccc(F)cc2)c(N)c1S(=O)(=O)c1ccccc1	0.38	nt
46	Cc1ccc(S(=O)(=O)NCCc2csc3nc(-c4ccccc4C)nn23)cc1	-0.8	nt
47	CN(C)C(=O)CN1C(=O)COc2ccc(C(=O)O)cc21	1.07	nt
48	C#CCOc1ncnc2c1oc1ccccc12	0.7	nt
49	Cc1ccc(C)n1-c1cc([N+](=O)[O-])ccc1N1CCN(C(=O)c2ccccc2)CC1	nt	-3.14
50	Cc1nccc(-c2cccc(NC(=O)c3nc4ccccc4s3)c2)n1	nt	-2.89

(more compounds)
cpd	mol	TAR Tat displ	CDC25B CDK2 inh
51	Cc1nn(-c2nncc(-c3ccc(Cl)cc3)n2)c2c1C(c1ccc(F)cc1)CC(=O)N2 (configuration not stated)	1.56	-1.02
52	Cc1ccc(Cc2nnc(-c3ccc(N)cc3Cl)o2)cc1	-0.34	nt
53	Cc1ccc(Nc2ncnc(N)n2)cc1C	-0.23	-1.37
54	Cc1nnsc1C(=O)N1CCN(c2ccc(F)cc2)CC1	1.62	-1.71
55	COc1ccc(C2=NOC(C(=O)NC3CCCCC3)C2)cc1OC (configuration not stated)	1.14	-0.81
56	CCCCC(CC)CNS(=O)(=O)c1ccc2c(c1)CCN2C(=O)C1CCC1 (configuration not stated)	-0.97	nt
57	Cc1nc(-c2ccc(OC(F)F)cc2)cs1	nt	-1.91
58	CCN(CC)CCNC(=O)Cn1c(=O)sc2ccccc21	-1	-0.39
59	COc1cc2nc(-c3ccc(OC(C)=O)cc3)oc(=O)c2cc1OC	1.89	-2.84
60	O=C(NCc1ccc(F)cc1)C1=Cc2sc3c(c2CS1)CCCC3	-0.15	nt
61	Cc1ccc2c(c1)C(=O)C(=O)S2	nt	-1.67
62	Cc1ccc(-c2nnc(N3CCOCC3)c3ccccc23)cc1S(=O)(=O)NCC1CCCO1 (configuration not stated)	nt	-0.24
63	Cn1ncc2c(N3CCN(c4cccc(Cl)c4)CC3)ncnc21	-0.24	nt
64	CC(=O)c1cc(-c2ccc(Cl)cc2)no1	nt	-1.73
65	Cc1nc(C)c(-c2ccc(SCC(=O)Nc3ccc(Br)cc3)nn2)s1	0.97	nt
66	COc1ccc(C2CC(=O)C3=C(C2)NC(C)=C(C(=O)OC(C)C)C3c2ccc(F)cc2)cc1 (configuration not stated)	1.34	-2.37
67	CC1CN(c2nc3ccccc3nc2SCC(=O)NC2CCCCC2)CC(C)O1 (configuration not stated)	-0.44	-0.88
68	Cn1c2ccccc2c2cnn(CC(=O)NCCCN3CCCCC3)c(=O)c21	2.44	-2.14
69	CCOC(=O)CNC(=O)CSc1nnc(Cn2c(=O)sc3ccccc32)n1C	nt	-0.94
70	CC(CCc1ccco1)N(C)S(=O)(=O)c1ccc2c(c1)CCCC(=O)N2 (configuration not stated)	0.09	nt
71	CN1C(=O)c2[nH]nc(-c3ccccc3)c2C1c1ccc(O)cc1 (configuration not stated)	0.13	1.03
72	O=C1CCCN2N=C(SCC(=O)OCc3ccccc3)SC2=N1	nt	-2.01
73	CCOc1ccc(-c2csc(-c3cc4c([nH]c3=O)CC(c3ccco3)CC4=O)n2)cc1 (configuration not stated)	-5.33	18.9*
74	CC(=O)Nc1ccc(N2COc3ccc(Br)cc3C2)cc1	0.46	0.12
75	O=C(Nc1nc2ccc(Cl)cc2s1)c1cc(=O)c2ccccc2o1	1.26	1.15
76	O=C(COc1ccc(Cl)cc1)Nc1noc2ccccc12	1.05	-1.26
77	CC(C)(C)Nc1nc(Oc2ccc(=O)[nH]n2)nc(N2CCOCC2)n1	0.65	-0.45
78	O=c1[nH]c2c(c(=O)[nH]1)CN(Cc1ccc(F)cc1)CC2	1.35	0.03
79	O=C1NC(=S)N/C1=C/c1ccc(-c2cc(C(=O)O)ccc2Cl)o1	nt	3.65*
80	CCOc1ccc(NC2OC(=O)c3ccccc32)cc1 (configuration not stated)	0.01	0.15
81	CCOC(=O)C(C)NC(=O)NCc1ccc2ncccc2c1 (configuration not stated)	0.02	nt
82	O=C(CSc1ncn[nH]1)c1ccc2c(c1)OCCO2	2.53	nt
83	CSc1ccc(OS(=O)(=O)c2ccc(C)c(F)c2C)cc1	nt	-1.09
84	O=C(CSc1nc(-c2ccccc2)nc2cc(=O)[nH]n12)Nc1ccccc1Cl	0.15	nt
85	CS(=O)(=O)n1c(=O)oc2ccccc21	1.12	0.43
86	O=C(CCC(=O)N1Cc2cccn2-c2ccccc21)N1CCN(c2ccc(Cl)cc2)CC1	-1.88	nt
87	O=C(O)C(Cc1ccccc1)n1cnnn1 (configuration not stated)	1.29	-1.68
88	CC(C)=CCC1=C(O)c2ccccc2C(=O)C1=O	0.69	nt
89	Cc1noc(-c2ccc(Cl)cc2)c1C(=O)NN	nt	-1.7
90	COCCc1nn2c(=O)cc(COC(=O)c3cccc(F)c3)nc2s1	0.79	nt
91	Cc1ccc(C2CC(=O)Nc3nc(N)[nH]c(=O)c32)cc1 (configuration not stated)	-0.57	-1.02
92	O=C(C1c2ccccc2Oc2ccccc21)N1CCN=C1SCc1ccccc1F	nt	-0.43
93	Cc1nnc(Nc2ccc3c(c2)OCCO3)[nH]c1=O	-0.37	-0.68
94	Cc1ccc(N2C(=S)N(C)C3CS(=O)(=O)CC32)cc1 (configuration not stated)	nt	1.21
95	c1ccc(-c2oc3ncn4nc(-c5ccncc5)nc4c3c2-c2ccccc2)cc1	nt	-0.09
96	CC(C)NCc1ccc(C(=O)O)s1	0.86	1.31
97	Clc1nc(NCCN2CCOCC2)nc(N2CCC(Cc3ccccc3)CC2)n1	2.54	-1.73
98	CCC1(C)Cc2c(sc3nc(SCC(N)=O)nc(N)c23)CO1 (configuration not stated)	1.56	-0.27
99	O=C1Nc2ccccc2SC(c2ccccc2)C1O (configuration not stated)	0.95	-1.12
100	Cc1ccc(NS(=O)(=O)c2ccc(N3CCCCS3(=O)=O)cc2)cc1F	2.59	nt

Among those listed so far, these contain a tert-butyl group:
cpd	mol	TAR Tat displ	CDC25B CDK2 inh
27	CCOC(=O)N1CCN(c2cc(C)nc3nc(-c4ccc(C(C)(C)C)cc4)nn23)CC1	-1.22	0.78
77	CC(C)(C)Nc1nc(Oc2ccc(=O)[nH]n2)nc(N2CCOCC2)n1	0.65	-0.45

Next part:
cpd	mol	TAR Tat displ	CDC25B CDK2 inh
101	CC(C)n1nnc2cc(S(=O)(=O)N3CCCC(C(=O)O)C3)ccc21 (configuration not stated)	0.91	-1.12
102	CCCC1=C(C(=O)OCC)C(c2cccc(F)c2)n2c(nc3ccccc32)N1 (configuration not stated)	1.68	-0.24
103	Cc1cc(S(=O)(=O)NC2CCCCNC2=O)c(C(F)(F)F)o1 (configuration not stated)	nt	-0.28
104	CC(N)C(O)c1cccc(O)c1 (configuration not stated)	-1.14	nt
105	Cc1nc(N2CCCC2)c2c(C(=O)NC3CCCCC3)c(C)oc2n1	-0.2	-1.6
106	Cc1cc(Cl)ccc1Nc1ncnc2c1nc1n2CCCC1	1.99	nt
107	CCOC(=O)c1nc(Nc2ccccc2)c2c(C)noc2n1	-0.17	nt
108	O=C1C2CCCN2C(c2ccc(Br)cc2)N1c1cccc(Cl)c1 (configuration not stated)	-0.84	-2.11
109	COc1ccc(-c2cc3ncc(C(=O)c4cc(Cl)c(C)cc4O)cn3n2)cc1	0.42	-0.57
110	CC(C)OC(=O)C1C2C=CC3(CN(C4CCCCC4)C(=O)C13)O2 (configuration not stated)	0.91	0.13
111	Cc1ccc2nc(NC(=O)C(Cc3c[nH]c4ccccc34)NC(=O)Oc3ccccc3)sc2c1 (configuration not stated)	nt	-0.84
112	CC(=O)N1CCc2c(sc3nc(SCc4nc5ccccc5[nH]4)n(-c4ccccc4)c(=O)c23)C1	-1	-6.4
113	CCOC(=O)C1=C(C)NC(=O)CC1c1cc2c(cc1Br)OCO2 (configuration not stated)	0.42	-0.14
114	Cc1cn(C)c(CC(=O)O)c1C(=O)Nc1ccc(F)cc1F	1.03	nt

Compound profiles (already shown). Order of screens: TAR Tat displ | CDC25B CDK2 inh
Cc1cn(C)c(CC(=O)O)c1C(=O)Nc1ccc(F)cc1F in the list: 1.03 | nt
CCOC(=O)c1nc(Nc2ccccc2)c2c(C)noc2n1 in the list: -0.17 | nt
